Choline anaer gr = inhibitors of anaerobic choline-dependent gram-negative bacterial growth | calls only | 55,000 compounds, 0.2% hits | AID 1963822 | Gram-negative bacterium anaerobic choline minimal medium, absorbance growth; hits give low values; many inactives read as strong as hits in the columns shown;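 active = growth z-score on choline under -2 at 7 or 20 h with little or no fall on glycerol, limits in tiers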;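 also: stock transfer was 300 nL into about 50 µL; the organism is E. coli; final concentration not given here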
Choline anaer gr early = further read-out of Choline anaer gr, marked with its call; z-score; measured here: choline growth z-score, timepoint 1;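 score of optical density at 7 h as mean of two plates; lower means less growth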
Numbers without * were called inactive; i = inactive; & = joins results of further samples.

| Compound | Choline anaer gr | Choline anaer gr early |
| --- | --- | --- |
| CCNc1cc(C)nc(N2CCN(S(=O)(=O)c3ccc(OC)c(OC)c3)CC2)n1 | i | 0.51 |
| CN1C(=O)c2ccccc2Oc2ccc(NC(=O)c3ccsc3)cc21 | i | -0.93 |
| CN(C)S(=O)(=O)N1CCc2[nH]nc(-c3ccc(F)cc3)c2C1 | i | 0.49 |
| CN1CCN(c2ncnc3scc(-c4ccc(Cl)cc4)c23)CC1 | i | 0.2 |
| O=C(Cc1ccc(-n2c(=O)c3ccccc3n(CC(=O)NC3CCCCC3)c2=O)cc1)NC1CC1 | i | 0.41 |
| CCCCC(C)(C)[C@H](O)/C=C/[C@H]1C=CC(=O)[C@@H]1C/C=C\CCCC(=O)O | i | 0.65 |
| Cc1cc(C)n(-c2nc3c(c(=O)n2CC(=O)N2CCCCC2)CCCC3)n1 | i | 0.2 |
| CC(=O)OCC(=O)[C@@]1(O)CC[C@H]2[C@@H]3CCC4=CC(=O)CC[C@]4(C)C3(F)[C@@H](O)C[C@@]21C (stereo partly specified) | i | -0.79 |
| O=C(Nc1ccc2c(c1)OCO2)N1CCN(c2ccc(-c3noc(C4CCC4)n3)cc2)CC1 | i | 0.35 |
| CCOc1ccc(CN2CCCC2c2c(C)noc2C)cc1 (stereo unspecified) | i | -0.23 |
| Cc1nn(C)cc1CN1CCCC(OCc2nc(C3CC3)no2)C1 (stereo unspecified) | i | 0.38 |
| Cc1nc2nncn2c(NCc2ccccc2)c1C | i | -0.57 |
| O=C(CCn1nnc2cc(S(=O)(=O)N3CCCC3)ccc21)NCc1ccccn1 | i | 0.34 |
| Cc1ccc(CN2C(=O)C3CCCCC3C2=O)cc1S(=O)(=O)NC1CCC(C)CC1 (stereo unspecified) | i | 0.33 |
| Cc1ccccc1-n1ccnc1SCC(=O)NCC1CCCO1 (stereo unspecified) | i | 0.16 |
| Cc1nn(-c2ccc(F)cc2)c2sc(C(=O)Nc3ccc(F)c(Cl)c3)cc12 | i | -1.3 |
| O=C(c1ccsc1)N1CCCCC1CCN1CCOCC1 (stereo unspecified) | i | 0.33 |
| CCCNC(=O)CN1c2ccccc2NC2=C(C(=O)CCC2)C1c1ccco1 (stereo unspecified) | i | -0.29 |
| Cc1onc(-c2ccccc2Cl)c1C(=O)Nc1ccc(Cl)cc1 | i | 0.18 |
| COc1ccc(CNC(=O)c2cccc(-c3ccc(S(=O)(=O)N4CCCC4)cc3)c2)c(OC)c1 | i | 1.9 |
| Cc1nc(-c2ccc(C)c(S(=O)(=O)N3CCOCC3)c2)no1 | i | 0.18 |
| Cc1nc(CCNC(=O)[C@H]2CSCN2S(=O)(=O)c2ccccc2C)cs1 | i | 0.77 |
| CN(C)c1nc2ncn3c(=O)n(CC(=O)N4CCc5ccccc5C4)nc3c2s1 | i | -2.4 |
| Cc1ccc(C)n1-c1c(C(=O)NCC2CCCO2)sc2ncccc12 (stereo unspecified) | i | -0.13 |
| CCC1=C[C@@H]2CN(C1)Cc1c([nH]c3ccccc13)[C@@](C(=O)OC)(c1cc3c(cc1OC)N(C)[C@H]1[C@@](O)(C(=O)OC)[C@H](OC(C)=O)[C@]4(CC)C=CCN5CC[C@]31[C@@H]54)C2 | i | 0.72 |
| CCN(CC)CCNc1cc(C)nc2c(-c3ccc(F)cc3)c(C(F)(F)F)nn12 | i | -1.1 |
| Cc1ccccc1CNC(=O)C1(C)CCCN(C(=O)NCC(C)C)C1 (stereo unspecified) | i | -0.62 |
| O=C(NC1CCCC1)N1CCN(Cc2nc3cccnc3n2-c2ccccc2)CC1 | i | -0.03 |
| COc1ccc(C2C3=C(CC(c4ccc(OC)c(OC)c4)CC3=O)Nc3onc(C)c32)cc1O (stereo unspecified) | i | 0.33 |
| O=C(Nc1ccc(Br)cc1)c1cnn(-c2ccc(F)cc2)c1 | i | -0.74 |
| CCOC(=O)C1=C(COCCN)NC(C)=C(C(=O)OC)C1c1ccccc1Cl (stereo unspecified) | i | 0.79&0.6&-0.08&-0.19 |
| Cc1ccc(CNS(=O)(=O)c2ccc(-c3nnc(C)o3)s2)o1 | i | 0.27 |
| Cc1cc2c(cc1S(=O)(=O)N(C)CC(=O)NC1CCCCC1)OCC(=O)N2 | i | -0.15 |
| O=C(Nc1ccc2c(c1)OCCO2)N1CCN(c2nc3ccccc3n3cccc23)CC1 | i | 0.25 |
| CCOc1ccc(S(=O)(=O)N2CSC[C@@H]2C(=O)NCc2csc(C)n2)cc1 | i | 1.4 |
| CN1c2ccccc2C(=O)NC12CCN(C(=O)Nc1ccc3c(c1)OCCO3)CC2 | i | -0.46 |
| Cc1cc(C)c(/C=C/c2onc(C)c2S(=O)(=O)N2CCCC(C(=O)Nc3nccs3)C2)c(C)c1 (stereo unspecified) | i | 0.97 |
| O=C(NCC1CCCO1)c1c(-c2ccc(F)cc2)nc2n1CCS2(=O)=O (stereo unspecified) | i | 0.63 |
| CCCC(=O)OCOC(=O)C1=C(C)NC(C)=C(C(=O)OC)C1c1cccc(Cl)c1Cl (stereo unspecified) | i | 0.87 |
| CN(C)c1ncnc2c1cnn2-c1ccccc1 | i | -0.98 |
| O=C(c1nc(-c2ccccc2)n(-c2ccccc2Cl)n1)N1CCCC1 | i | -1.5 |
| CCc1nc(CN2C(=O)COc3cc(S(=O)(=O)NCC4CCCO4)c(C)cc32)no1 (stereo unspecified) | i | 0.34 |
| Cc1ccccc1C(=O)NCCc1csc2nc(-c3ccccc3F)nn12 | i | 0.66 |
| O=C(NC1CCCCC1)c1ccc2nc3ccc(Cl)cc3c(=O)n2c1 | i | 0.75 |
| COc1ccc(-n2nnc(-c3nc(-c4cccc(OC)c4)cs3)c2N)cc1 | i | -1.1 |
| CCN(CC)C(=O)CSc1nnc2c3ccccc3nc(-c3ccccc3)n12 | i | 1.2 |
| CCc1nnc(-c2ccc(S(=O)(=O)N3CCCC3)o2)o1 | i | 0.3 |
| c1cc(-c2noc(-c3ccc4c(c3)OCO4)n2)ccc1-c1csc(C2CC2)n1 | i | 1.8 |

4 compounds drawn at random from the list so far, as already listed:
| Compound | Choline anaer gr | Choline anaer gr early |
| --- | --- | --- |
| Cc1ccccc1C(=O)NCCc1csc2nc(-c3ccccc3F)nn12 | i | 0.66 |
| COc1ccc(-n2nnc(-c3nc(-c4cccc(OC)c4)cs3)c2N)cc1 | i | -1.1 |
| CCN(CC)C(=O)CSc1nnc2c3ccccc3nc(-c3ccccc3)n12 | i | 1.2 |
| Cc1cc(C)c(/C=C/c2onc(C)c2S(=O)(=O)N2CCCC(C(=O)Nc3nccs3)C2)c(C)c1 (stereo unspecified) | i | 0.97 |

Continued:
| Compound | Choline anaer gr | Choline anaer gr early |
| --- | --- | --- |
| O=C(c1cc(-c2ccc(Cl)cc2)on1)N1CCOCC1 | i | 0.07 |
| O=C(c1cc(NS(=O)(=O)c2ccccc2)ccc1N1CCNCC1)N1CCOCC1 | i | -1.7 |
| COc1ccc(Cl)cc1Nc1cc(-c2ccc(C)cc2)nc(C)n1 | i | -0.11 |
| COc1cccc(NC(=O)N2CCN(S(=O)(=O)c3ccc4c(ccn4C)c3)CC2)c1 | i | -0.02 |
| COc1ccc(NC(=O)N(C)CCc2noc(C3CCCCC3)n2)cc1OC | i | -0.39 |
| CCCn1c(=O)c2sccc2n2c(SCC(=O)Nc3ccc(Br)cc3)nnc12 | i | 0.21 |
| CCOC(=O)c1c(C)c(S(=O)(=O)N2CCN(CC)CC2)c(C)n1C | i | 0.14 |
| Cc1ccc(-c2nc(CSc3nc(C)cc(=O)[nH]3)c(C)o2)cc1 | i | 0 |
| COCCn1cc(CCNC(=O)Nc2cc(F)ccc2F)c2cccnc21 | i | -0.87 |
| COCCCNC1=NCCNC12CCN(S(=O)(=O)c1cc(C)cc(C)c1)CC2 | i | -1.1 |
| CCOc1cc(CN2CCCC2c2cc(C)on2)ccc1O (stereo unspecified) | i | -0.1 |
| CN(C)c1cc2c(cc1NC(=O)CCC1CCCC1)n(C)c(=O)c(=O)n2C | i | -0.16 |

Three compounds from above, sorted by count of non-hydrogen atoms, lowest first.
| Compound | Choline anaer gr | Choline anaer gr early |
| --- | --- | --- |
| O=C(c1cc(-c2ccc(Cl)cc2)on1)N1CCOCC1 | i | 0.07 |
| Cc1ccc(-c2nc(CSc3nc(C)cc(=O)[nH]3)c(C)o2)cc1 | i | 0 |
| COCCCNC1=NCCNC12CCN(S(=O)(=O)c1cc(C)cc(C)c1)CC2 | i | -1.1 |

(further entries)
| Compound | Choline anaer gr | Choline anaer gr early |
| --- | --- | --- |
| CC(=O)N1CCCc2cc(S(=O)(=O)N3CCC(C(=O)NCc4cccnc4)CC3)ccc21 | i | -1.4 |
| COc1cccc(C2C3=C(CC(c4ccc(O)c(OC)c4)CC3=O)Nc3onc(C)c32)c1 (stereo unspecified) | i | 0.42 |
| CN1CCN(C(=O)C2=Cc3ccccc3OC2)CC1 | i | -0.02 |
| CCCc1nnc(-c2ccsc2)o1 | i | -2.4 |
| Clc1ccccc1N1CCN(c2nccn3nc(-c4ccccc4)cc23)CC1 | i | -0.27 |
| Cc1ccc(-c2nc(CSCC(=O)N3CCOCC3)no2)cc1 | i | -1.7 |
| Cc1cc(C)n2ncc(C(=O)N3CCC(C)CC3)c2n1 | i | 0.68 |
| Clc1ccc2c(N3CCN(CCCN4CCN(c5ccnc6cc(Cl)ccc56)CC4)CC3)ccnc2c1 | i | -1.1 |
| Cc1ccc(-c2nc3ccccc3c3nnc(SCc4ccccn4)n23)cc1 | i | 0.81 |
| COc1ccc(C(=O)NCCc2sc(-c3ccc(F)cc3)nc2C)cc1OC | i | -1.1 |
| COc1cccc(N2CC(NC(=O)c3cc4ccccc4o3)CC2=O)c1 (stereo unspecified) | i | -0.64 |
| COc1cccc(NC(=O)Cn2c(=O)n(CCCCC(=O)NCCC(C)C)c(=O)c3ccccc32)c1 | i | -0.14 |
| Cc1cccc(-n2ncc3c2ncn2nc(COc4c(C)cccc4C)nc32)c1 | i | 0.57 |
| O=C(NCCN1CCOCC1)c1nc(-n2cnnc2)ccc1Br | i | -0.48 |
| C=Cc1ccc(Cn2nc3c(S(=O)(=O)N4CCCC4)cccn3c2=O)cc1 | i | 0 |
| Cn1c(=O)c(=O)n(CC(=O)NCCN2CCCC2)c2cccnc21 | i | 1.1 |
| COc1ccc(NC(=O)C2CCCN(S(=O)(=O)Cc3ccccc3)C2)cc1OC (stereo unspecified) | i | 1.3 |
| CCc1onc(C)c1C1CCCN1Cc1ccc(OC)cc1OC (stereo unspecified) | i | -1.3 |
| Cc1cc(N2CCC(C)CC2)nc2ccc(NC(=O)CCC(=O)N3CCCCC3C)cc12 (stereo unspecified) | i | 0.37 |
| O=C1CCCN2N=C(SCC(=O)Nc3cccc(F)c3)SC2=N1 | i | -1.6 |
| CC1(C)C(=O)N(CC(=O)N2CCCCC2)c2ccc(S(=O)(=O)N3CCCC3)cc21 | i | -0.71 |
| COCc1nnc(NC(=O)COc2ccc(-c3noc(-c4ccccc4)n3)cc2OC)s1 | i | -0.19 |
| CCNC(=O)C1Cc2ccccc2N1C(C)=O (stereo unspecified) | i | -0.03 |
| CC1CCN(S(=O)(=O)c2ccc3nn(C)c(=O)n3c2)CC1 | i | 0.36 |
| CS(=O)(=O)Nc1ccc(-c2noc(-c3ccc4c(c3)OCO4)n2)cc1 | i | -0.16 |
| O=C(NCc1ccc(F)cc1)C1CCN(S(=O)(=O)c2ccc3[nH]c(=O)sc3c2)CC1 | i | -0.2 |
| CC1CCN(S(=O)(=O)c2cn(Cc3noc(-c4ccc5cc[nH]c5c4)n3)cn2)CC1 | i | 2.5 |
| Cc1cc2nc(C)c(=O)n(CCC(=O)N3CCN(c4ccccn4)CC3)c2cc1C | i | -0.04 |
| CCCc1cc(Nc2ccc(Br)cc2)n2nc(-c3ccco3)nc2n1 | i | 0.7 |
| O=C(CCC(=O)N1CCSc2ncccc21)NCc1cccc(Cl)c1 | i | -1.7 |
| CCc1nc(CN2C(=O)COc3ccc(S(=O)(=O)N4CCCCC4C)cc32)no1 (stereo unspecified) | i | 0.11 |
| CC1CCN(c2ncc3c(n2)CCC(C(=O)NC(C)CCc2ccco2)C3)CC1 (stereo unspecified) | i | -1.5 |
| c1ccc(-c2nnc(-c3ccncc3)o2)cc1 | i | -1.3 |
| COc1ccc(CCNC(=O)CCCn2nc(-c3ccccc3)c3cc(Cl)ccc32)cc1OC | i | 2.6 |
| CCc1cccc2c3c([nH]c12)C(CC)(CC(=O)O)OCC3 (stereo unspecified) | i | -0.84&-0.3 |
| Cc1nc(-c2csc(S(=O)(=O)NCc3cccnc3)c2)sc1C(=O)N1CCCC1 | i | -0.42 |
| COc1ccc(CSc2nc3ccncc3n2Cc2cccc(OC)c2)cc1 | i | -0.58 |
| O=C(CC(c1ccccc1)c1ccccc1)Nc1nnc2n1CCCS2 | i | -0.69 |
| CCc1nc(-c2csc(S(=O)(=O)N3CCC4(CC3)OCCO4)c2)no1 | i | 0.07 |
| CCC(C)NC(=O)CSc1cc(C)nc2c(-c3ccccc3OC)c(C)nn12 (stereo unspecified) | i | -1.8 |
| O=C(O)c1nnn(Cc2cccc(Cl)c2)c1C(=O)O | i | 0.91 |
| CCCN1C(=O)c2c(NC(C)=O)c3cc(OC)ccc3n2CC1(C)C(=O)NC1CCCC1 (stereo unspecified) | i | -0.72 |
| CCOC(=O)CNC(=O)N1CCN(c2ccc(=O)n(-c3ccc(F)cc3)n2)CC1 | i | 0.24 |
| CC(C)N1C(=O)c2ccccc2Sc2cc(NC(=O)C3CC(=O)N(c4ccccc4)C3)ccc21 (stereo unspecified) | i | 0.14 |
| Cc1cc(C)c(NC(=O)CN2C(=O)CCc3cc(S(=O)(=O)N4CCCC4)ccc32)c(C)c1 | i | -0.09 |
| O=C(Nc1sc2c(c1C(=O)NCC1CCCO1)CCC2)c1cc(-c2ccc3c(c2)OCCO3)on1 (stereo unspecified) | i | -0.44 |
| CC(C)n1c(=O)c(=O)[nH]c2cc(-c3noc(-c4ccc(F)c(Cl)c4)n3)ccc21 | i | -0.58 |
| CN1CCN(C(=O)C2CCN(S(=O)(=O)c3ccc4c(c3)sc(=O)n4C)CC2)CC1 | i | -0.62 |
| CC(C)n1cnc(S(=O)(=O)N2CCCC(C(=O)Nc3ccccn3)C2)c1 (stereo unspecified) | i | 0.21 |
| CCc1nnc2n1NC(c1ccccc1)C(C(=O)Nc1ccc(F)cc1)S2 (stereo unspecified) | i | -1.2 |

Compound activity from PubChem BioAssay.

These rows are one share of the data (hit frequency here may not be typical).
